Screens (PubChem BioAssay)
HCMV UL50-53 inh: disrupts HCMV UL50-UL53 complex binding | 190,000 tested, 0.15% active | HTRF UL50-UL53 interaction, normalized percent inhibition | inhibition, % (concentration not given with the values);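 active = both replicates at 50% or more, plus weaker picks with an unusually low signal ratio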;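 note: stock transfer was 100 nL into about 20 µL; 0% = negative control wells and 100% = wells with untagged competitor protein; inactives centre near -12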
GIV Gai3 FP: GIV-Galpha-i interaction inhibition; P08753; Galpha-i3/FITC-GIV peptide fluorescence polarization, 90 min; stronger effect = lower value; scaled: aluminum fluoride 0%, vehicle 100%; percent of control (FP), % (test concentration not listed); 210,000 tested, 0.42% active; AID 1224905;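 active = replicate mean at 85% of control or lower, very high polarization wells dropped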;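 note: wells of about 15 µL received 100 nL stock; the first replicate is given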
Target sequence (P08753 whole entry, looked up): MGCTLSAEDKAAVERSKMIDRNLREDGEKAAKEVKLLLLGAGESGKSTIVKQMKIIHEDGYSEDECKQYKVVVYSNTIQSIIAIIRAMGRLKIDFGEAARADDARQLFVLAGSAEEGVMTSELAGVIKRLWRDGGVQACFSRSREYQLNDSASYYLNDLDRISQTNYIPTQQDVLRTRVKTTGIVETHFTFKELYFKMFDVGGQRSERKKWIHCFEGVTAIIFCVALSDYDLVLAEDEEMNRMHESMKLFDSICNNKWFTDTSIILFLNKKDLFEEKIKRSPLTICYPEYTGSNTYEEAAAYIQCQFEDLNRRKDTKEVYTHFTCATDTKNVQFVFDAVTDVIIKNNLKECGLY
Sa growth inh: S. aureus growth inhibition | 170,000 tested, 0.53% active | relative growth, % (test concentration not listed) | AID 720641 | S. aureus RN4220 growth, OD600, 20 h, 42 °C; stronger effect = lower value;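 active = growth at 42 °C up to 50% and 20 or more points under that at 30 °C, or under 10% at both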;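 note: 300 nL library stock went into each well; scaled to the means of positive and negative controls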
Sa growth inh second temp: also measured in Sa growth inh; calls as there; relative growth, %; measured here: growth at 30 °C;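 optical density after 20 h as mean of two plates; 100% = untreated growth and lower means inhibition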
* marks the source's active call; other numbers are inactive results; · = not tested or not shown; & = joins results of further samples.

Values in the order: HCMV UL50-53 inh	GIV Gai3 FP	Sa growth inh	Sa growth inh second temp
Cc1cc(C)c2oc(-c3ccc(NC(=O)COc4ccc(Br)cc4)cc3O)nc2c1
→ -5.0	·	99.5	69.8
COCCNC(=O)c1cc(-c2ccccc2)n[nH]1
→ 1.3	91.7	95.2	107.5
Cc1ccnc(NC(=O)C(C)(C)Oc2ccc(Cl)cc2)n1
→ 3.6	·	90.3	93.7
CN1CCN(Cc2cc(=O)n3[nH]c(-c4ccc(C(C)(C)C)cc4)nc3n2)CC1
→ -19.9	101.0	·	·
Cc1nnc(SCC2=NN(c3nc4ccccc4[nH]3)C(=O)C2)s1
→ -16.0	103.4	·	·
CCOc1ccc(N(CC(=O)NCCSc2ccccn2)S(=O)(=O)c2ccc(SC)cc2)cc1
→ -12.7	109.0	·	·
N#C/C(C(=O)NCc1ccccc1)=C(/O)CN1C(=O)c2ccccc2C1=O
→ -27.7	·	77.0	91.3
Cc1ccc(Cl)cc1N1CCN(C(=O)CCCn2c(=O)[nH]c3ccc(Br)cc3c2=O)CC1
→ -14.9	104.4	102.6	88.6
CCn1c(SCc2ccccc2Cl)nc(=O)c2c(C(=O)OC)cc(C3CC3)nc21
→ ·	97.0	46.4	54.3
CCCCC(=O)Nc1nnn(CCC)n1
→ -3.1	99.7	105.2	98.4
O=c1c(-c2ccccc2)[n+]([O-])c2ccccc2n1OCc1ccccc1
→ ·	99.2	85.8	87.5
Cc1ccc2cccc(NC(=O)COc3ccccc3Cl)c2n1
→ 31.6	107.8	105.7	104.2
CNC(=O)C(C)n1nc(C)c2sc3ccccc3c2c1=O (configuration not stated)
→ ·	101.2	120.5	81.0
CC1CCN(C(=O)Cn2ncc3c2-c2ccccc2OC3)CC1
→ -7.0	98.0	88.2	89.6
COc1ccc(CNC(=O)c2oc3cc4sc(N(C)C)nc4cc3c2C)cc1
→ -22.7	109.9	·	·
Cc1ccc(N2CC(C(=O)Nc3ccc(S(=O)(=O)NC4CCCCC4)cc3)CC2=O)cc1 (configuration not stated)
→ -10.6	105.7	117.1	110.4
O=C(O)c1ccc(N2CCN(c3ccc(F)cc3)CC2)c(NC(=O)c2ccc(Br)cc2)c1
→ -19.6	98.4	·	·
O=C1C2=C(CCCC2)C(=O)N1CNc1ccccc1
→ -41.5	103.1	100.5	84.5
Cn1nc(-c2ccccc2)cc1NC(=O)c1cccs1
→ 45.2	104.6	106.5	87.7
O=C(Nc1ccccn1)C12CCC(CC1)C2
→ -4.0	·	108.0	93.3
N#CSC(C(=O)c1ccccc1)c1ccccc1 (configuration not stated)
→ -13.4	99.1	134.6	80.0
Cc1ccc(-c2cc(C(F)(F)F)n3nc(C(=O)Nc4ccc(Cl)c(C(F)(F)F)c4)cc3n2)cc1
→ -18.4	102.6	84.0	85.2
Cc1[nH]c2ccccc2c1C(=O)CN1C(=O)NC(CC(C)C)C1=O (configuration not stated)
→ -35.0	·	93.2	81.6
COc1ccc(C(=O)COC(=O)c2oc3ccccc3c2C)cc1OC
→ -22.0	·	83.4	92.1
COc1ccccc1C1C2=C(CC(C)(C)CC2=O)Nc2onc(C)c21 (configuration not stated)
→ -23.0	102.5	·	·
COc1ccc(Cl)cc1NC(=NCc1ccncc1)NC(=O)c1ccc(CN2CCOCC2)cc1
→ 19.2	105.5	·	·
COC(=O)c1c(CSc2nnc(-c3ccc(OC(F)F)cc3)o2)nc2ccccc2c1C
→ -8.5	·	82.7	94.8
CC(C)CNS(=O)(=O)c1ccc(S(=O)(=O)N2CCCN(Cc3ccccc3)C2)cc1
→ -4.7	99.8	96.2	105.3
COc1ccc(/C(O)=C/c2nc3ccc(C(=O)NCCc4ccccc4)cc3[nH]c2=O)cc1
→ ·	206.5	71.3	75.9
CNc1nc(SCC(=O)OC)nc(N2CCOCC2)n1
→ 12.9	106.0	90.8	70.4
CC1Sc2cc(S(=O)(=O)NCCc3ccccc3)ccc2NC1=O (configuration not stated)
→ ·	102.5	107.8	82.7
CCOC(=O)C1CCN(C(=O)c2ccccc2NC(=O)C2=CSCCO2)CC1
→ -37.1	102.3	93.5	87.1
CC1(C)CC(=O)c2cc(OCC(=O)NCc3ccccc3)ccc2O1
→ ·	110.6	91.3	93.4
Cc1cc(-c2cc(N)n(-c3ccccc3)n2)c(C)n1-c1ccccc1F
→ -30.9	·	95.9	94.2
CN(C(=O)Cn1c(=O)n(CCCC(=O)NCc2ccco2)c(=O)c2sccc21)c1ccccc1
→ -2.9	102.1	113.1	84.7
CC(=O)N1CC(C)Sc2cc(S(=O)(=O)N3CCCCC3)ccc21 (configuration not stated)
→ ·	98.7	106.5	84.6
COc1cccc(N2CCN(S(=O)(=O)c3cc(-c4cc(C)no4)ccc3C)CC2)c1
→ ·	102.5	115.5	86.2
CC(C)N(Cc1nc2ccccc2c(=O)[nH]1)C(=O)c1cccc(C#N)c1
→ -18.5	·	94.7	93.8
O=C(CN1C(=O)CCSc2ccccc21)Nc1ccccc1F
→ -16.6&-16.5	98.2&99.6	102.5	87.5
O=C(OC1OCCOC1OC(=O)c1ccc(F)cc1)c1ccc(F)cc1 (configuration not stated)
→ -16.8	·	91.5	94.4
O=c1cc(CSc2n[nH]c(-c3ccccc3)n2)nc2nc[nH]n12
→ 1.0	112.8	·	·
COc1ccc(-c2nc3ccccc3o2)cc1NC(=O)c1ccc(OCC(C)C)cc1
→ -24.6	106.5	110.6	84.7
CC(C)(C)c1csc(=Nc2ccc(F)cc2F)o1
→ -32.0	97.8	108.5	78.5
CSc1n[nH]c(NC2=CC(=O)CCC2)n1
→ -4.2	106.7	99.0	75.7
CCOc1ccccc1CNC(=O)c1cc2n(n1)CCCN(Cc1ccc(C)cc1)C2=O
→ ·	100.9	86.0	84.5
COc1ccccc1C(=O)Nc1ccc2c(C)cc(=O)oc2c1
→ 2.0	101.4	96.8	91.2
CC(=O)N1CCN(Cc2csc(-c3ccc(F)cc3)n2)CC1
→ -35.3	·	96.8	92.3
COc1ccc(OC)c(NC(=O)CCNC(=O)Cn2cnc3ccccc3c2=O)c1
→ -19.1	101.2	113.0	83.5
O=C(NC1CC1)c1cc2c(s1)CS(=O)(=O)C2
→ 1.4	101.4	102.6	84.5
c1ccc(-c2cnc3n2CCCCC3)cc1
→ -23.8	112.9	111.3	84.5

Six consecutive records already listed, quoted:
Values in the order: HCMV UL50-53 inh	GIV Gai3 FP	Sa growth inh	Sa growth inh second temp
O=c1cc(CSc2n[nH]c(-c3ccccc3)n2)nc2nc[nH]n12
→ 1.0	112.8	·	·
COc1ccc(-c2nc3ccccc3o2)cc1NC(=O)c1ccc(OCC(C)C)cc1
→ -24.6	106.5	110.6	84.7
CC(C)(C)c1csc(=Nc2ccc(F)cc2F)o1
→ -32.0	97.8	108.5	78.5
CSc1n[nH]c(NC2=CC(=O)CCC2)n1
→ -4.2	106.7	99.0	75.7
CCOc1ccccc1CNC(=O)c1cc2n(n1)CCCN(Cc1ccc(C)cc1)C2=O
→ ·	100.9	86.0	84.5
COc1ccccc1C(=O)Nc1ccc2c(C)cc(=O)oc2c1
→ 2.0	101.4	96.8	91.2

Next part:
Values in the order: HCMV UL50-53 inh	GIV Gai3 FP	Sa growth inh	Sa growth inh second temp
O=C(Nc1ccccc1OC(F)F)C12CC3CC(CC(O)(C3)C1)C2
→ -13.1	·	73.5	96.9
C=CCN1C(=O)C(O)(c2sc(N3CCOCC3)nc2C)c2ccccc21 (configuration not stated)
→ 22.8	·	84.8	85.6
Cc1ccc(NC(=O)CNC(=O)C23CC4CC(CC(C4)C2)C3)c(O)c1
→ -21.3	·	92.8	68.4
O=C(NCCCN1CCN(c2ccccc2F)CC1)C1C2C=CC3(CN(Cc4ccccc4Cl)C(=O)C13)O2 (configuration not stated)
→ -24.8	105.4	105.5	83.1
O=C(O)c1cccc(N2N=C(C(F)(F)F)/C(=C/c3ccc(-c4ccc5c(c4)C(=O)NC5=O)o3)C2=O)c1
→ -61.6	95.4	·	·
CC1CCCC(C)N1NC(=O)c1cccc(S(=O)(=O)N2CCc3ccccc32)c1 (configuration not stated)
→ -18.9	·	107.8	87.1
CC(=O)Nc1ccccc1-c1nc2ccccc2n(CC(=O)Nc2ccc(C)c(Cl)c2)c1=O
→ 16.1	98.5	101.2	93.9
O=c1c(-c2ccc(F)cc2)coc2c3c(ccc12)OCCO3
→ -22.5	·	103.9	88.5
CCC(=O)N=c1sc2cc(S(N)(=O)=O)ccc2n1CCOC
→ -9.8	109.8	102.3	100.2
CN1C(=O)c2ccccc2C(C(=O)NCc2ccc(F)cc2)C1c1c[nH]c2ccccc12 (configuration not stated)
→ ·	101.9	140.0	81.1
Brc1ccc(Nc2c3c(nc4nncn24)CCC3)cc1
→ -24.1	103.3	98.5	75.5
COc1ccc(N2CCN(C(=O)c3nc(SC)ncc3Cl)CC2)cc1
→ -6.1	106.0	107.5	96.1
O=C(Nc1ccc(N2CCCCC2)cc1)c1ccccn1
→ 10.0	·	103.0	90.5
COc1ccc(S(=O)(=O)N(C(=O)C2CCCCC2)c2ccc3oc(=O)sc3c2)cc1OC
→ ·	95.9	126.5	88.1
CCc1nn2c(=O)cc(COC(=O)c3cccc(NC(=O)COc4ccccc4)c3)nc2s1
→ ·	101.7	119.5	92.1
C=Cc1ccc(COC(=O)c2nnn(-c3ccc(OC)c(Cl)c3)c2C)cc1
→ 0.5	104.2	·	·
CCc1ccc(-n2c(=O)c3cccnc3n2CC(=O)NCCC2=CCCCC2)cc1
→ -24.0	105.7	·	·
O=C(NC1CCCC1)c1cc2c(=O)n3ccccc3nc2nc1NCC1CCCO1 (configuration not stated)
→ -130.5	105.9	87.7	88.4
CN(CCCNC(=O)Cc1ccc(NC(=O)N2CCCCc3ccccc32)cc1)Cc1ccccc1
→ -21.3	104.7	·	·
COc1ccc2c(c1)-c1c(ssc1=S)C(C)(C)N2C(=O)CSc1nc2ccccc2o1
→ -12.9	101.9	117.3	105.6
CCN(CC)c1cc(C)c2cc(NC(=O)c3ccccc3Cl)ccc2n1
→ -0.1	103.1	100.8	91.9
CCOc1ncccc1C(=O)Nc1ccnn1Cc1ccccn1
→ -23.9	·	87.0	91.2
O=C(Nc1cc(Cl)cc(Cl)c1)N1CCC(n2cccc2)CC1
→ -13.8	99.1	80.5	89.3
Cc1ccc(S(=O)(=O)n2nc(C)c(S(=O)(=O)N3CCC(C)CC3)c2C)cc1
→ ·	98.4	103.8	83.0
Cc1ccc(N(C(=O)c2cc3ccccc3oc2=O)C2C=CS(=O)(=O)C2)cc1 (configuration not stated)
→ ·	100.3	112.7	90.0
O=C(CSc1nc(=O)n(CCN2CCOCC2)c2c1CCC2)Nc1ccccc1
→ ·	93.1	114.4	78.3
CCCNC(=O)CN1C(=O)CCc2cc(S(=O)(=O)N3CCC(C)CC3)ccc21
→ -26.4	105.2	·	·
CN(C)c1ccc(NC(=O)CSc2nc(N)cc(=O)[nH]2)cc1
→ -10.0	97.1	87.1	113.3
COc1ccc(C(=O)C(CN2CCCCC2)c2ccccc2)cc1 (configuration not stated)
→ -14.2	110.5	59.3	69.4
CCn1c(N2CCN(CC(=O)c3ccc(OC)cc3)CC2)nc2ccccc21
→ -4.8	97.1	103.3	72.0
COc1ccc(CC(=O)N2CCCC2c2nnc(SCc3ccccc3)n2C)cc1 (configuration not stated)
→ 3.6	103.9	118.2	91.7
COCCn1c(SCC(=O)N2CCCc3ccccc32)nc2c(c1=O)SC(C)C2 (configuration not stated)
→ 4.0	102.5	95.9	88.0
Cc1ccc(S(=O)(=O)N(C)c2nc3nc(C)c(Cl)c(C)n3n2)cc1
→ -2.4	97.4	·	·
Clc1ccc(N=C2SCC3CCCCN23)cc1 (configuration not stated)
→ 6.6	·	84.0	96.0
CCC(C(=O)NCc1cc(Br)ccc1OC)n1nc(C)n2c(cc3occc32)c1=O (configuration not stated)
→ ·	106.7	101.4	78.5
O=C(Nc1nc2cc(NC(=O)c3cnccn3)ccc2s1)c1ccccc1
→ -4.8	100.0	·	·
O=C(Nc1nc2ccc(S(=O)(=O)N3CCCC3)cc2s1)c1ccc(F)cc1
→ ·	96.0	93.8	90.4
Nc1ccc(CN2CCOCC2)cc1
→ -2.7	103.9	100.3	92.1
